KCNQ2 pot = KCNQ2 (rat) channel potentiation. O88943. AID 2239. 310,000 compounds, 0.54% hits. B-score at 10 µM. CHO-K1 KCNQ2, FluxOR thallium flux fluorescence; hits give high values;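 active = fluorescence ratio B-score at least 3 SD of library B-scores, with initial fluorescence B-score within 3 SD, cut at about 5.3 in these data; same plate scores as AID 2156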;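 note: B-score of peak minus minimum over baseline fluorescence ratio after K+ and Tl+ stimulus; positive B-score means potentiation of KCNQ2 with more thallium influx and brighter signal; only the inactives scoring about 0 or higher are listed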
KCNQ2 pot baseline = second read-out of KCNQ2 pot, no call of its own (marks repeat the call); B-score; compound at 10 µM; measured here: initial fluorescence intensity artifact check;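 brightness before thallium and not channel activity; 0 = typical well and far values either way flag optical interference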
Numbers without * were called inactive. This is a subset; rates above refer to the full screens.

1: CCSc1nc2c(cnn2-c2ccccc2)c(=O)n1N
2: Cc1cc(C)n(-c2ccc(F)cc2CN2CCN(C3CCCC3)C(CCO)C2)n1 (centres undefined)
3: O=C1[C@H]2[C@H](ON3CCCC[C@H]23)C(=O)N1c1cccc(C(F)(F)F)c1
4: CN(c1ccccc1C(=O)O)S(C)(=O)=O
5: Cc1cc(Br)ccc1NC(=O)C1C2CCC(O2)C1C(=O)O (centres undefined)
6: CCSCCOC(=O)C1=C(C)NC(=O)NC1c1cc(OC)ccc1OC (centres undefined)
7: Cc1onc(-c2ccccc2Cl)c1C(=O)OCC(=O)c1ccc2c(c1)OCCO2
8: CCOc1cc(N2CCOCC2)c(OCC)cc1NC(=O)CSc1nccc(C)n1
9: O=[N+]([O-])c1ccc(CSc2nnc(-c3cnccn3)o2)cc1
10: Cc1cccc(NC(=O)CSc2nc3c(c(=O)[nH]2)CCC3)c1C

assay / compound	1	2	3	4	5	6	7	8	9	10
KCNQ2 pot	2.04	0.17	0.18	0.15	0.45	1.27	0.66	0.9	0.36	2.18
KCNQ2 pot baseline	-1.82	0.38	-0.26	0.35	-0.39	2.01	0.08	-1.58	-0.12	-0.61

11: Cc1ccc(NC(=S)N/N=C/c2cccn2Cc2ccccc2F)cc1
12: Cc1ccc(C(=O)C2=C(O)C(=O)N(CCCN(C)C)C23C(=O)N(C)c2ccccc23)o1 (centres undefined)
13: O=C(Nc1cccc(F)c1)c1ccc(Cn2cc([N+](=O)[O-])cn2)o1
14: COc1ccc(NC(=O)c2cc3cc(C)ccc3n2C)c(OC)c1
15: CN(CC(=O)Nc1ccccc1Cl)C(=O)COC(=O)CN1C(=O)NC2(CCCC2)C1=O
16: CCc1cc(C(=O)NCC2CCCO2)sc1C (centres undefined)
17: O=C(COc1ccc(Cl)cc1)N1CCN(C(=O)c2cccs2)CC1
18: CCCc1cc(=O)n2[nH]c(C)c(-c3ccccc3)c2n1
19: CC1(C)CC(=O)C(N=Nc2cc(Cl)c(Cl)c(Cl)c2)=C(O)C1
20: OCCN1CCN(CC/C=C2/c3ccccc3CSc3ccccc32)CC1

assay / compound	11	12	13	14	15	16	17	18	19	20
KCNQ2 pot	1.26	0.61	5.49*	0.23	0.97	0.89	0.65	1.77	1.82	0.36
KCNQ2 pot baseline	0.63	-0.6	-1.98*	-0.13	0.05	0.02	-0.1	0.02	-0.83	1.02

Copied from above: compounds 1–3
1: CCSc1nc2c(cnn2-c2ccccc2)c(=O)n1N
2: Cc1cc(C)n(-c2ccc(F)cc2CN2CCN(C3CCCC3)C(CCO)C2)n1 (centres undefined)
3: O=C1[C@H]2[C@H](ON3CCCC[C@H]23)C(=O)N1c1cccc(C(F)(F)F)c1

assay / compound	1	2	3
KCNQ2 pot	2.04	0.17	0.18
KCNQ2 pot baseline	-1.82	0.38	-0.26

Remaining list, next part.
21: COc1ccc(N=C(C)C2=C(O)CSC2=O)cc1
22: Cn1nc(Oc2nc(N3CCOCC3)nc(N3CCOCC3)n2)ccc1=O
23: CN(CC(=O)Nc1cccc(S(=O)(=O)N(C)C)c1)Cc1ccccc1
24: COc1ccc(CCC(C)NCc2cc(OC)cc(OC)c2)cc1 (centres undefined)
25: CC1(C)C(=O)NCCN1C(=O)CCC(=O)O
26: CCc1nnc(NS(=O)(=O)c2ccc(N3C(=O)c4ccc(C(=O)O)cc4C3=O)cc2)s1
27: COC(CNC(=O)c1ccc2c(c1)ncn2-c1ccc(F)c(F)c1)OC
28: CS(=O)(=O)Nc1ccccc1C(=O)Nc1ccccc1C(=O)N1CCCC1
29: CC(=O)c1cn(CCC(C)C)c(=O)[nH]c1=O
30: COCCn1c(SCC(=O)N2CCOCC2)nc2ccccc2c1=O
31: COCCNC(=O)C(c1ccc(C)o1)N(Cc1cccs1)C(=O)c1snc(C(N)=O)c1N (centres undefined)

assay / compound	21	22	23	24	25	26	27	28	29	30	31
KCNQ2 pot	1.54	0.19	2.35	1.35	0.63	0.57	0.02	0.55	2.08	1.94	0.63
KCNQ2 pot baseline	-0.72	-0.81	0.85	-0.52	0.01	-1.72	0.09	0.5	-0.81	1.51	0.02

Of the compounds above, these contain an aryl thioether with sulfur outside any ring.
1: CCSc1nc2c(cnn2-c2ccccc2)c(=O)n1N
8: CCOc1cc(N2CCOCC2)c(OCC)cc1NC(=O)CSc1nccc(C)n1
9: O=[N+]([O-])c1ccc(CSc2nnc(-c3cnccn3)o2)cc1
10: Cc1cccc(NC(=O)CSc2nc3c(c(=O)[nH]2)CCC3)c1C
30: COCCn1c(SCC(=O)N2CCOCC2)nc2ccccc2c1=O

assay / compound	1	8	9	10	30
KCNQ2 pot	2.04	0.9	0.36	2.18	1.94
KCNQ2 pot baseline	-1.82	-1.58	-0.12	-0.61	1.51
